MgrA-DNA mod = modulators of Staphylococcus aureus MgrA DNA binding. 84,000 compounds, 0.13% hits. inhibition, %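 (about 10 µg/mL by stock and volumes)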. fluorescence polarization. AID 602314;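 active = above 50% in either of two replicates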;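 note: 0% = protein plus DNA without compound and 100% = DNA alone without protein; higher means less MgrA bound to DNA so lower polarization; one replicate is shown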
Sa helicase inh = blocks Staphylococcus aureus DNA helicase | purified S. aureus helicase, fluorescence unwinding assay; about half of the hits fall short of the stated cut | inhibition, %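 (tested at about 80 µM)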 | 120,000 compounds, 0.05% hits | AID 485395;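 active = both duplicates at 50% or more, or one of them with a favoured structure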;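 note: 0% = mean of negative control wells and 100% = mean of positive control wells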
The depositor's hits bear a star. Only part of the results is shown (hit frequency here may not be typical).

Screening CCc1cc2c(SCC(=O)Nc3ccc(S(=O)(=O)N4CCOCC4)cc3)ncnc2s1 returned Sa helicase inh -5.0.
`COc1ccc(CN=C(Nc2ccccc2)SC2CC(=O)NC2=O)cc1` (centres undefined) gave MgrA-DNA mod 0.5 and Sa helicase inh 5.0.
Screening Cc1ccccc1CNC(=O)CCC(=O)N1CCSc2ncccc21 returned Sa helicase inh -6.0.
Screening CC1(C)CC2CC(C)(CN2C(=O)CSCC(=O)O)C1 (centres undefined) returned MgrA-DNA mod 0.8 and Sa helicase inh -12.0.
CCCN(CCC)C(=O)Nc1ccc(CC)cc1 was read as MgrA-DNA mod 0.7 and Sa helicase inh 14.0.
`O=C(COc1ccc2c3c(c(=O)oc2c1)CCC3)OCc1ccccc1` gave Sa helicase inh 13.0.
For CCC1CCc2sc(C(=O)N=c3sccn3C)cc2C1 (centres undefined) the results were Sa helicase inh 9.0.
For COc1cc([N+](=O)[O-])cc2c1NC(c1cccc(Cl)c1Cl)C1CC=CC21 (centres undefined) the results were MgrA-DNA mod -1.6.
`COC(=O)C1=C(C)NC2=C(C(=O)CC(c3ccc(OC)c(OC)c3)C2)C1c1cc(OC)c(OC)c(OC)c1` (centres undefined) gave MgrA-DNA mod -1.4.
Screening COc1ccc(N(C)C(=O)C(NS(=O)(=O)c2cccc3nsnc23)c2ccccc2)cc1 (centres undefined) returned Sa helicase inh -3.0.
`CCOC(=O)c1nnc(-c2ccc3c(c2)OCO3)o1` gave Sa helicase inh -30.0.
Cn1c(=O)n(C2(C)CSC2)c2ccccc21 was read as Sa helicase inh -26.0.
Screening COC(=O)c1sc(SC)c(C(C)=O)c1C returned MgrA-DNA mod -0.1.
For O=C1NC2(CCCCC2)C(=O)N1c1ccc(Cl)cc1 the results were MgrA-DNA mod 0.5 and Sa helicase inh -3.0.
`CN(c1ccccn1)S(=O)(=O)c1cc(Cl)ccc1Cl` gave Sa helicase inh 6.0.
Screening COc1ccccc1OCC(O)CN1CCN(CC(=O)Nc2c(C)cccc2C)CC1 (centres undefined) returned MgrA-DNA mod 1.0.
For CCOC(=O)Cn1nc(-c2nonc2N)nc1-c1nonc1N the results were Sa helicase inh 15.0.
`Cc1ccc(C)n1-c1ccc(C(=O)N/N=C/c2ccncc2)cc1` gave Sa helicase inh 5.0.
For CC(=O)NCCc1csc(-c2ccccc2)n1 the results were MgrA-DNA mod 3.9 and Sa helicase inh 10.0.
Screening CCOc1nc(C#N)nc(N2CCCCC2)n1 returned Sa helicase inh 10.0.
`N#C/C(=C(/O)c1cc2ccccc2o1)c1nc2ccccc2s1` gave Sa helicase inh 14.0.
`COc1ccc(N2C(=O)NC(=O)/C(=C\c3ccccc3OCCBr)C2=O)cc1` gave MgrA-DNA mod 8.5.
For O=C(NCCCNC1CCCCC1)c1ccc(/C=N/O)nc1 the results were Sa helicase inh -15.0.
For FC(F)(F)c1ccc2nnn(OCc3nnc(-c4ccccc4)o3)c2c1 the results were Sa helicase inh 14.0.

An excerpt from above in order of SMILES length, largest number first:
For CCOC(=O)Cn1nc(-c2nonc2N)nc1-c1nonc1N the results were Sa helicase inh 15.0.
For O=C(NCCCNC1CCCCC1)c1ccc(/C=N/O)nc1 the results were Sa helicase inh -15.0.
Screening CCOc1nc(C#N)nc(N2CCCCC2)n1 returned Sa helicase inh 10.0.

Next structures.
Screening COCCn1cnc2c1c(=O)n(CC(=O)OCC(=O)NC1CCCC1)c(=O)n2Cc1ccccc1 returned Sa helicase inh -13.0.
For CC(C)c1ccc(OCc2ccc(C(=O)N(C)C)o2)cc1 the results were MgrA-DNA mod -0.3 and Sa helicase inh 15.0.
`CC(C)CCCNc1nc(N2CCOCC2)nc(N2CCOCC2)n1` gave Sa helicase inh -20.0.
For CCOC(=O)c1c(NC(=O)c2onc(C)c2Cl)sc(C)c1C the results were Sa helicase inh -3.0.
Screening O=C(O)CSc1n[nH]c(-c2cccs2)n1 returned MgrA-DNA mod -1.4.
CCN(CC)c1ccc(Nc2nc(-c3cccs3)cs2)cc1 was read as MgrA-DNA mod 1.3 and Sa helicase inh 6.0.
`CN(C)c1ncc2c(n1)CC(c1ccc(C(C)(C)C)cc1)CC2=O` (centres undefined) gave Sa helicase inh 5.0.
Screening O=S(=O)(Cc1ccccc1)NC(c1ccccc1)c1nnc(-c2ccccc2)o1 (centres undefined) returned Sa helicase inh 1.0.
For NC(=O)CCN1CCCC1C(N)=O (centres undefined) the results were Sa helicase inh 32.0.
COc1cc(/C=c2/sc3nc4cc(C)c(C)cc4n3c2=O)cc(Br)c1OCc1ccccc1 was read as MgrA-DNA mod 0.1.
Screening CNC(=O)c1ccccc1-c1nc(-c2ccc(Cl)cc2)no1 returned MgrA-DNA mod -2.1 and Sa helicase inh 5.0.
CC1CC(C)CN(S(=O)(=O)c2ccc(C(=O)NCCCn3ccnc3)cc2)C1 (centres undefined) was read as Sa helicase inh 3.0.
`O=C1NC(=Nc2ccccc2)/C(=C/c2cccs2)S1` gave Sa helicase inh -9.0.
For Cn1c(O)c(N=O)c2ccccc21 the results were Sa helicase inh 24.0.
CCn1c(C)cc(C(=O)O)c1C was read as Sa helicase inh -8.0.
For O=C(/C=C/c1ccccc1)OCC1CCCN2CCCCC12 (centres undefined) the results were MgrA-DNA mod -0.5.
Screening CCc1cc(C(=O)O)on1 returned MgrA-DNA mod -7.8 and Sa helicase inh 8.0.
`CC1=CC(C)(C)N(C(=O)CN2C(=O)c3ccccc3C2=O)c2ccccc21` gave MgrA-DNA mod -1.6 and Sa helicase inh 8.0.
Cn1c(=NC(=O)c2nc3ccccc3s2)sc2cc(Cl)ccc21 was read as Sa helicase inh 13.0.
For CSc1nnnn1-c1cccc2ccccc12 the results were MgrA-DNA mod -2.1 and Sa helicase inh 5.0.
`O=C(CCNC(=O)c1ccccc1Cl)NC1=NCCS1` gave Sa helicase inh 8.0.
`CCOC(=O)c1c(NC(=O)c2ccc(C)cc2)sc(C(=O)Nc2ccccc2C(F)(F)F)c1C` gave MgrA-DNA mod -0.1.
`CCC(=O)Nc1ccc(C(=O)COc2ncnc3ccccc23)cc1` gave Sa helicase inh 2.0.
NC(=O)COC(=O)Cc1c(Cl)cccc1Cl was read as MgrA-DNA mod 1.1 and Sa helicase inh 14.0.
`CC(C)CCNc1nnnc2c1sc1nc(N3CCOCC3)c3c(c12)CCCC3` gave MgrA-DNA mod -0.6 and Sa helicase inh 10.0.
Screening Cc1nc2ccc(N=Cc3ccc(Br)cc3)cc2s1 returned MgrA-DNA mod 1.2 and Sa helicase inh 8.0.
For CN(CCO)C(=O)c1cccc2c1-c1ccccc1C2=O the results were Sa helicase inh 1.0.
`Cc1nn(-c2ccccc2)c2nc(-c3ccccc3)ccc12` gave Sa helicase inh 7.0.
For CC(C)(C)OC(=O)N/N=C\c1cccc2ccccc12 the results were MgrA-DNA mod 0.2.
For CC1CCCC(C)N1C(=O)CCC(=O)O (centres undefined) the results were MgrA-DNA mod -0.4 and Sa helicase inh 11.0.
`CC(CCc1ccccc1)NCc1ccco1` (centres undefined) gave MgrA-DNA mod -5.4 and Sa helicase inh 0.0.
Screening Cc1cc(C(=O)COc2ncnc3sccc23)c(C)n1C returned Sa helicase inh 22.0.
For BrCCc1nc(CCBr)n(Cc2ccccc2)n1 the results were Sa helicase inh 10.0.
COc1ccc(C)cc1NC(=O)NC1CCCCC1C (centres undefined) was read as MgrA-DNA mod -1.0 and Sa helicase inh 7.0.
Screening CC(C)(C)c1csc(-c2ccc(-c3ccccn3)s2)n1 returned Sa helicase inh -10.0.
`COc1ccc2c(C)c(CC(=O)O)c(=O)oc2c1` gave MgrA-DNA mod 1.1 and Sa helicase inh 4.0.
For CCOC(=O)c1cc(-c2cccs2)nc2ccccc12 the results were MgrA-DNA mod -1.4.
Cc1n[nH]c(=O)c(C#N)c1C was read as Sa helicase inh -11.0.
`CCOC(=O)Cc1c(C)[nH]c(C(=O)OCC)c1CC(=O)OCC` gave MgrA-DNA mod 0.2.
Screening O=C(NCc1ccccn1)OCC(F)(F)F returned Sa helicase inh 3.0.
Screening COc1cc(SC)ccc1C(=O)Nc1cccc(-c2nncn2C)c1 returned MgrA-DNA mod 3.2 and Sa helicase inh 25.0.
CCSc1nnc(C2CCCN(S(C)(=O)=O)C2)n1C(C)C (centres undefined) was read as MgrA-DNA mod -1.9 and Sa helicase inh 7.0.
COC(=O)C1Cc2c([nH]c3ccccc23)C(C(C)C)N1 (centres undefined) was read as Sa helicase inh 7.0.
Screening CC1=C(C#N)c2nc(N)c(C#N)c(C)c2/C1=C\c1ccc(-c2cccc([N+](=O)[O-])c2)o1 returned MgrA-DNA mod -3.5.
`c1ccc2c(c1)[nH]c1cncnc12` gave Sa helicase inh 25.0.
Cc1cc(C(=O)N(C)CC(=O)Nc2ccccc2C(F)(F)F)c(C)o1 was read as Sa helicase inh 0.0.
CCOC(=O)/C(N=Nc1ccc(OC)cc1)=C(\C)O was read as MgrA-DNA mod -1.6.
Screening Cc1nnc(Sc2cc(C(=O)NCCCN3CC(C)CC(C)C3)c3ccccc3n2)s1 (centres undefined) returned MgrA-DNA mod -0.3 and Sa helicase inh 8.0.
For Cn1cccc1C(=O)OCc1cc(=O)n2cc(Br)ccc2n1 the results were Sa helicase inh 4.0.
For Cc1cc(C)n(CCCNC(=O)c2ccccc2CSc2ncn[nH]2)n1 the results were Sa helicase inh 8.0.
Screening COc1ccc(-n2nnnc2-c2ccccc2)cc1 returned MgrA-DNA mod 1.0 and Sa helicase inh -9.0.
CCOC(=O)Oc1c(OC)cc(C(=O)OC2CC3CN4CCc5c([nH]c6cc(OC)ccc56)C4CC3C(C(=O)OC)C2OC)cc1OC (centres undefined) was read as MgrA-DNA mod 3.8.
`CC(C)n1nccc1NC(=O)COC(=O)c1ccc(NC(N)=O)cc1` gave Sa helicase inh 4.0.
Screening O=C(CN1C(=O)CC(c2ccccc2)Sc2ccccc21)NCc1ccccc1 (centres undefined) returned Sa helicase inh -19.0.
Screening CC1(C)c2ccccc2N2CC(=O)NC21/C=C/c1ccc(N2CCOCC2)cc1 (centres undefined) returned MgrA-DNA mod 2.3.
N#Cc1c(SCC(=O)c2ccc3c(c2)OCO3)sc2c(=O)[nH]c(=O)[nH]c12 was read as MgrA-DNA mod 2.7 and Sa helicase inh -11.0.
Screening O=c1cc(CSc2nnc(CN3CCCCC3)n2Cc2ccccc2)nc2sc3ccccc3n12 returned Sa helicase inh 10.0.
For CN(C(=S)NCc1ccccc1)c1ccc(O)cc1 the results were Sa helicase inh 5.0.
For CC1(C)ONC(=O)N(c2ccccc2)C1=O the results were MgrA-DNA mod 0.0.
`COC(=O)CCC(=O)Nc1ccc2oc3c(c2c1)CCCC3` gave MgrA-DNA mod 3.8 and Sa helicase inh 10.0.
For Cc1nn(CC(=O)NC2C3CC4CC(C3)CC2C4)c(=O)c(C#N)c1C (centres undefined) the results were Sa helicase inh 8.0.
Screening O=C(OCC(=O)N1c2ccccc2Sc2ccccc21)c1ccco1 returned MgrA-DNA mod -2.8 and Sa helicase inh 5.0.
Screening O=C(Nc1ccc(N2CCCCC2)cc1)c1cccs1 returned MgrA-DNA mod -4.9 and Sa helicase inh 2.0.
Screening Cc1ccc(NC(=S)NN(C)C)cc1C returned Sa helicase inh 5.0.
For O=C1c2ccccc2C(=O)N1CC(=O)n1nnc2ccccc21 the results were Sa helicase inh 4.0.
`COc1ccc(CCNC2CC(=O)N(Cc3ccccc3)C2=O)cc1OC` (centres undefined) gave MgrA-DNA mod 3.0 and Sa helicase inh 14.0.
Screening O=C(NCCc1c[nH]c2ccccc12)c1ccc(Cl)c(S(=O)(=O)N2CCCC2)c1 returned MgrA-DNA mod 4.2 and Sa helicase inh -22.0.
Screening O=C(NNc1ccccc1)c1cccs1 returned MgrA-DNA mod 2.3.
For COc1ccc(-n2ccnc2SCC(=O)Nc2ccccc2)cc1 the results were Sa helicase inh 5.0.
O=C(COCc1cc(-c2ccc(F)cc2)on1)NCCN1CCCC1 was read as Sa helicase inh 8.0.
`CCCC12CN3CC(C)(CN(C1)C31CCN(Cc3ccccc3)CC1)C2=O` gave Sa helicase inh -17.0.
Screening N#CCn1c(=O)n(C2CCCCC2)c(=O)c2ccccc21 returned MgrA-DNA mod 4.0 and Sa helicase inh 7.0.
Screening COc1ccc(NC(=S)c2nc(N3CCCCC3)sc2N)cc1 returned Sa helicase inh -24.0.
`Cc1nnc(SC2CCN(S(=O)(=O)c3ccc4c(c3)OCCO4)CC2)s1` gave Sa helicase inh -13.0.
Cc1cc(-c2csc(NC=C(C#N)C#N)n2)c(C)n1CCC(C)C was read as Sa helicase inh -172.0.
CN(C)c1ccc(-n2c(=O)c3cc4c(=O)n(-c5ccc(N(C)C)cc5)c(=O)c4cc3c2=O)cc1 was read as MgrA-DNA mod 3.5 and Sa helicase inh 4.0.
O=C1c2ccccc2C(=O)C1(Cc1ccc(Cl)cc1)c1ccc(Cl)cc1 was read as MgrA-DNA mod 1.3 and Sa helicase inh 6.0.

Of the compounds above, these have a Cl atom:
For COc1cc([N+](=O)[O-])cc2c1NC(c1cccc(Cl)c1Cl)C1CC=CC21 (centres undefined) the results were MgrA-DNA mod -1.6.
For O=C1NC2(CCCCC2)C(=O)N1c1ccc(Cl)cc1 the results were MgrA-DNA mod 0.5 and Sa helicase inh -3.0.
`CN(c1ccccn1)S(=O)(=O)c1cc(Cl)ccc1Cl` gave Sa helicase inh 6.0.
For CCOC(=O)c1c(NC(=O)c2onc(C)c2Cl)sc(C)c1C the results were Sa helicase inh -3.0.
Screening CNC(=O)c1ccccc1-c1nc(-c2ccc(Cl)cc2)no1 returned MgrA-DNA mod -2.1 and Sa helicase inh 5.0.
Cn1c(=NC(=O)c2nc3ccccc3s2)sc2cc(Cl)ccc21 was read as Sa helicase inh 13.0.
`O=C(CCNC(=O)c1ccccc1Cl)NC1=NCCS1` gave Sa helicase inh 8.0.
NC(=O)COC(=O)Cc1c(Cl)cccc1Cl was read as MgrA-DNA mod 1.1 and Sa helicase inh 14.0.
Screening O=C(NCCc1c[nH]c2ccccc12)c1ccc(Cl)c(S(=O)(=O)N2CCCC2)c1 returned MgrA-DNA mod 4.2 and Sa helicase inh -22.0.
O=C1c2ccccc2C(=O)C1(Cc1ccc(Cl)cc1)c1ccc(Cl)cc1 was read as MgrA-DNA mod 1.3 and Sa helicase inh 6.0.
